CSC inhib: blocks cancer stem cells. hit rate 1.1% among 300,000. inhibition, % at 7.5 µM. AID 2717. cancer stem cell-like cells viability, luminescence;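 active = mean at 75% or more and at least half the replicates too; inconclusive = mean and replicates disagree; tested in HMLE shEcad cells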;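 also: 0% = median of negative and 100% = median of positive control wells; the first replicate is given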
PABP FP inh: blocks human PABP binding to poly(A) RNA; AID 2014; inhibition, % at 35 µM; fluorescence polarization; hit rate 1% among 290,000;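 active = 50% or more with normal probe brightness, or confirmed in later tests; inconclusive = above 50% with abnormal brightness, or retests that disagree; inactive = below 50% or failed in later tests; about a fifth of its hits are not listed in these tables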;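 also: calls also rest on retests at 20 µM and on dose response follow-up; controls were probe without protein and protein plus probe with vehicle; some compounds called inactive have numbers as strong as hits; many hits fall short of the cut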
Target sequence (P11940 whole entry, looked up): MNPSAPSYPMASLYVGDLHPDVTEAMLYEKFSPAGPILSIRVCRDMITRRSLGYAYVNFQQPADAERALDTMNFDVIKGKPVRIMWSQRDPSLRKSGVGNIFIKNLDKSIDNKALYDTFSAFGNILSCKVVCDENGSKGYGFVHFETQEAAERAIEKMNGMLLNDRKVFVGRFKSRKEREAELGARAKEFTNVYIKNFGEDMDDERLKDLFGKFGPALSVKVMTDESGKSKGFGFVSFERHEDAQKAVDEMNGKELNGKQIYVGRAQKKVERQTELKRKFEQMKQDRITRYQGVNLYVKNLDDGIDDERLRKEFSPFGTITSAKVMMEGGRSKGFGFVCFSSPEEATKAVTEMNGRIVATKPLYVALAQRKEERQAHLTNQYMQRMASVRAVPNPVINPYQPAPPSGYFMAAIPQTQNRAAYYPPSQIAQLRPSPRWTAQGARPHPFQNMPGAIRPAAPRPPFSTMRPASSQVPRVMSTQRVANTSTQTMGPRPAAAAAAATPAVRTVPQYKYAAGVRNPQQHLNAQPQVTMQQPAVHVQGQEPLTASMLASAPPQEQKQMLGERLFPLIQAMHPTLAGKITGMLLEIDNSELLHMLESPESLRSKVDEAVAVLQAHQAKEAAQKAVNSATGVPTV
eIF4H inh: inhibitors of RNA binding by human eIF4H | eIF4H fluorescence polarization binding assay | hit rate 0.94% among 290,000 | inhibition, % at 35 µM;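 active = 50% or more with normal probe brightness, or confirmed in later tests; inconclusive = above 50% with abnormal brightness, or retests that disagree; inactive = below 50% or failed in later tests; about a fifth of its hits are not listed in these tables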;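 also: calls also rest on retests at 20 µM and on dose response follow-up; 0% = protein and probe with vehicle and 100% = probe without protein; strong numbers were not always called active; many hits fall short of the cut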
UUG fidelity: alters start codon recognition fidelity in yeast; S. cerevisiae UUG-firefly luciferase reporter, luminescence/redox ratio; activity score, % at 18.7 µM; hit rate 0.13% among 350,000;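 active = replicate mean at a twofold rise or more, about +100% in these data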;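 also: firefly luciferase made from a UUG start codon reports start codon fidelity; reporter light over untreated wells divided by growth signal over untreated wells; some hits fall short of that in this replicate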
HIV Env fusion: inhibitors of HIV Env-mediated cell fusion. HeLa-JRFL Env/CEM21 cell fusion, luciferase. inhibition, % at 12.3 µM. hit rate 1.1% among 360,000;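 active = mean replicate inhibition score of at least 50 and every replicate individually at or above 50; inconclusive = only one of the two criteria met; inactive = mean below 50 and not all replicates reaching 50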;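 also: 0% = plate neutral controls and 100% = maraviroc near 300 nM; one replicate is shown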
Rce1 inhib: inhibitors of yeast Ras-converting enzyme; calls only; yeast membranes, quenched prenylated peptide cleavage fluorescence; hit rate 0.27% among 290,000; AID 2563;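 active = fall in fluorescence gain of 50% or more versus controls, with final raw signal at or below 3038400; inconclusive = same 50% fall but final raw signal above 3038400; inactive = fall in fluorescence gain under 50%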;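 also: plate controls were neutral control wells for no effect and wells lacking membranes for full effect; tested at 10 µM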
MT1-MMP act inh: MT1-MMP (human) activation inhibition. P50281. HT1080 RFP-PRO-GFP cells, GFP/RFP ratio fluorescence, overnight; percent of plate control window, DMSO zero. GFP/RFP ratio change, % at 20 µM. hit rate 0.061% among 360,000;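 active = GFP/RFP ratio change of at least 30% with cell ATP level not reduced by more than half and red fluorescence within 50% of control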; also: strong numbers were not always called active
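Assay system: HT1080 RFP-PRO-GFP cells. Benchmarks: DMSO vehicle wells and RFP-L50D-GFP reporter cell wells. Times: overnight cell settling, then overnight compound exposure, 37 °C, 5% CO2. Compound: 20 µM single dose, 1% DMSO. Read-out basis: GFP/RFP fluorescence ratio.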
MT1-MMP act inh RFP: second read-out of MT1-MMP act inh, no call of its own (marks repeat the call); RFP signal change, %; measured here: RFP expression control read;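 0 = vehicle wells; hits needed this value within 50% of zero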
Active calls of the source: *; i = inactive; ? = inconclusive; nt = no result given.

SMILES | CSC inhib | PABP FP inh | eIF4H inh | UUG fidelity | HIV Env fusion | Rce1 inhib | MT1-MMP act inh | MT1-MMP act inh RFP
CN(c1ccc(OCc2ccc([N+](=O)[O-])cc2)cc1)S(=O)(=O)c1ccccc1 | nt | -2 | -7 | 1 | 15 | i | 1 | -4
CCN1C(=O)N(S(=O)(=O)C(F)(F)F)[C@@H](c2ccccc2)C(C(=O)OC)=C1C | 5 | 11 | 3 | -8 | 13 | i | -3 | 2
CC(C)c1c(O)nc(SCCN2CCOCC2)[nH]c1=O | -3 | -6 | -10 | -8 | -48 | i | -5 | -3
O=c1c2c(ncn1CCO)nc1n2CCC1 | -9 | 20 | 0 | 2 | -380 | i | 1 | 2
O=C(COC(=O)c1cc(NS(=O)(=O)c2cccs2)ccc1O)Nc1ccccc1 | 4 | -4 | 0 | -4 | -5 | i | 7 | 1
CN(C)CCNC(=O)c1cccc(NS(=O)(=O)c2ccc(Cl)c(Cl)c2)c1 | -15 | 5 | -6 | -11 | 4 | i | 6 | 1
CCN(CC1COc2ccccc2O1)S(=O)(=O)c1ccc(C)cc1 (stereo unspecified) | 1 | 7 | 8 | nt | 27 | i | 3 | -2
CCC(C(=O)NCC1CCCO1)N(C(=O)CNS(=O)(=O)c1ccccc1)c1ccc(F)cc1 (stereo unspecified) | -11 | 4 | -9 | -4 | 10 | i | 1 | 5
O=c1oc(=O)c2ccccc2c2ccccc12 | nt | nt | nt | -19 | -3 | nt | 0 | -1
Cc1ccc(S(=O)(=O)NCCNC(=O)c2ccc(C)nc2)cc1 | nt | -3 | -3 | -6 | 2 | i | 4 | 5
CCCCNC(=O)CSc1nnc(Cc2ccccc2)n1CC1CCCO1 (stereo unspecified) | -12 | -3 | 4 | nt | 8 | i | 1 | 8
O=C1C=C(Nc2ccc(Cl)cc2)CC(c2ccccc2)C1 (stereo unspecified) | 50 | -2 | 5 | -14 | -11 | i | -12 | -13
CC1=C(OC(=O)C(C)(C)C)C(C)(C)C(c2ccccc2)OC1=O (stereo unspecified) | -29 | -3 | 0 | nt | 1 | i | 1 | -7
Cc1cc(C)n2c(Nc3ccc4c(c3)OCCO4)c(-c3ccc(C)o3)nc2n1 | -8 | 9 | -5 | -21 | -19 | i | 1 | 1
Cc1cccc(OCc2nnc(SCC(=O)N3CCCCC3)o2)c1 | -22 | 10 | 0 | -2 | -3 | i | -2 | -3
O=C(NCCSCc1ccc(Cl)cc1)c1cccs1 | 1 | -5 | 4 | nt | 11 | nt | 4 | -2
COC(=O)c1nc2n(n1)C(c1cc(OC)ccc1OC)C(C(=O)OC1CCCCC1)=C(C)N2 (stereo unspecified) | 3 | -3 | 7 | 8 | -11 | i | 0 | -4
CC(C)C[C@@H](CN)NC(=O)c1nc[nH]c1C(=O)N[C@@H](Cc1ccccc1)C(=O)CNC[C@H](C)NC(=O)c1nc[nH]c1C(=O)N[C@@H](CC(=O)O)C(=O)O | nt | nt | nt | 13 | -7 | nt | 3 | 7
O=C(NCC(c1cccnc1)N1CCN(c2ccc(F)cc2)CC1)c1ccc2c(c1)OCO2 (stereo unspecified) | -4 | 2 | -4 | -13 | nt | i | 1 | -7
COc1ccccc1CCNC(=O)CN1C(=O)c2ccccc2S1(=O)=O | -4 | nt | nt | -6 | 6 | i | 7 | 3
CCS(=O)(=O)c1ccc2oc(Nc3ccc(OC)cc3)nc2c1 | -15 | -7 | 2 | -39 | -6 | i | 2 | 1
CCOC(=O)N1CCN(C(=O)c2ccc(NS(=O)(=O)c3ccc4[nH]c(=O)[nH]c4c3)cc2)CC1 | -3 | nt | nt | -7 | 7 | i | 1 | 5
CCn1nc(CCC(=O)O)c2ccccc2c1=O | -19 | -10 | 0 | -13 | -46 | i | -6 | 0
Cc1ccccc1NC(=O)c1ccc(F)c(S(=O)(=O)N2CCCCC2)c1 | -1 | 3 | -5 | nt | 15 | i | 1 | -3
CC(C)NC(=O)C1CCN(C2CCN(C(=O)c3ccc4cccc(F)c4n3)CC2)CC1 | -6 | -5 | -11 | 1 | -15 | i | 0 | 0
COc1ccccc1Nc1cc2cc(Br)ccc2c(=O)[nH]1 | -10 | nt | nt | -79 | -112 | i | -11 | -3
CC1(C)CC(=O)C2=C(C1)N(Cc1ccco1)C(=O)NC2(C(F)(F)F)C(F)(F)F | -4 | 14 | 5 | 28 | nt | i | 1 | 0
COc1cccc(-n2c(SCC(N)=O)nc3c([nH]c4ccccc43)c2=O)c1 | -4 | -11 | -7 | -12 | -71 | i | -3 | -5
COc1cccc(NC(=O)CN(C)CC(=O)NCc2ccco2)c1 | -12 | nt | nt | -34 | -2 | nt | -5 | -3
Cc1ccccc1N1CCN(C2CCCN(C(=O)CCN3CCCCC3=O)C2)CC1 (stereo unspecified) | -2 | 10 | 10 | -17 | 7 | i | 0 | 3
C=CCOc1ccc(CNc2nn[nH]n2)cc1 | -4 | 6 | 5 | -3 | -40 | i | 1 | -1
Cc1cccnc1NC(=O)c1ccc(S(=O)(=O)N2CC(C)OC(C)C2)cc1 (stereo unspecified) | -18 | 6 | -9 | -19 | -3 | i | -1 | 2
CCCS(=O)(=O)c1nc(S(=O)(=O)c2ccc(C)cc2)c(N2CCC(O)CC2)s1 | -9 | 6 | -3 | 17 | -4 | i | -4 | -3
Cn1c(=O)oc2cc(S(=O)(=O)NCCN3CCc4ccccc4C3)ccc21 | -3 | 2 | -2 | -28 | -45 | i | nt | nt
COc1cccc(N(CC(=O)N2CCN(Cc3ccccc3)CC2)S(C)(=O)=O)c1 | nt | nt | nt | -15 | -28 | nt | -5 | -1
O=C(Cn1cnc2c(oc3ccccc32)c1=O)NCCc1ccccc1 | 8 | nt | nt | -9 | nt | i | -1 | 6
CCn1c(C)nnc1SCC(=O)Nc1nccs1 | -12 | 9 | -4 | nt | -4 | i | 3 | 4
CS(=O)(=O)Nc1ccc(C(=O)NC2CCCCC2)cc1 | -10 | -2 | 9 | -15 | -4 | i | 9 | -3
CC(C)(C)N(Cc1ccccc1)C(=O)CSc1nc2ccccc2c(=O)[nH]1 | -3 | 15 | 8 | 4 | nt | i | -12 | -7
CCOc1ccc(C(C(=O)NCC2CCCO2)N(C(=O)c2snc(C(N)=O)c2N)c2cccc(F)c2)cc1 (stereo unspecified) | -5 | -12 | 0 | -13 | -2 | i | -2 | 0
CC1CN(C(=O)CS(=O)(=O)Cc2ccc(Cl)cc2)CC(C)O1 (stereo unspecified) | 10 | 2 | -8 | 0 | -1 | i | 0 | 0
COc1ccccc1-n1cc(C(=O)NCC(=O)N2CCN(c3ccccc3)CC2)c2ccccc2c1=O | -15 | -1 | -9 | 0 | -147 | i | 5 | 0
Cc1cccc(Nc2ncc3c(n2)CC(c2ccco2)CC3=O)c1 (stereo unspecified) | 5 | 4 | -4 | -11 | nt | i | -7 | -6
CC1CC(C)(C)CC2(C1)NC(=S)N(c1ccccc1)N2 (stereo unspecified) | 47 | 15 | 5 | nt | nt | i | 2 | 7
Cc1n[nH]c(C)c1N1C(=O)c2cccc3c(N4CCCCCC4)ccc(c23)C1=O | -18 | ? | ? | -5 | -16 | i | -226 | 0
C=CCNC(=O)c1ccc(C)c(Br)c1 | -1 | -2 | -10 | -20 | nt | i | 3 | -3
COc1ccc(NC(=S)N2CCC(C(O)(c3ccccc3)c3ccccc3)CC2)cc1 | -43 | 9 | 7 | -26 | 6 | i | -20 | -5
COc1cc(CSC)nc(-c2ccccc2)n1 | 2 | 5 | 2 | -14 | 7 | i | -2 | -1
O=C(CNC(=O)c1ccccc1)OCc1ccc([N+](=O)[O-])cc1 | -1 | -12 | 4 | nt | 18 | i | 3 | 0
CCOCCn1c(N2CCN(c3ccc(OC)cc3)CC2)nc2c1c(=O)[nH]c(=O)n2C | -15 | -7 | 10 | 21 | nt | i | 5 | 5

As a short view, part of the list above.
SMILES | CSC inhib | PABP FP inh | eIF4H inh | UUG fidelity | HIV Env fusion | Rce1 inhib | MT1-MMP act inh | MT1-MMP act inh RFP
CS(=O)(=O)Nc1ccc(C(=O)NC2CCCCC2)cc1 | -10 | -2 | 9 | -15 | -4 | i | 9 | -3
CC(C)(C)N(Cc1ccccc1)C(=O)CSc1nc2ccccc2c(=O)[nH]1 | -3 | 15 | 8 | 4 | nt | i | -12 | -7
CCOc1ccc(C(C(=O)NCC2CCCO2)N(C(=O)c2snc(C(N)=O)c2N)c2cccc(F)c2)cc1 (stereo unspecified) | -5 | -12 | 0 | -13 | -2 | i | -2 | 0
CC1CN(C(=O)CS(=O)(=O)Cc2ccc(Cl)cc2)CC(C)O1 (stereo unspecified) | 10 | 2 | -8 | 0 | -1 | i | 0 | 0
COc1ccccc1-n1cc(C(=O)NCC(=O)N2CCN(c3ccccc3)CC2)c2ccccc2c1=O | -15 | -1 | -9 | 0 | -147 | i | 5 | 0
Cc1cccc(Nc2ncc3c(n2)CC(c2ccco2)CC3=O)c1 (stereo unspecified) | 5 | 4 | -4 | -11 | nt | i | -7 | -6
CC1CC(C)(C)CC2(C1)NC(=S)N(c1ccccc1)N2 (stereo unspecified) | 47 | 15 | 5 | nt | nt | i | 2 | 7
Cc1n[nH]c(C)c1N1C(=O)c2cccc3c(N4CCCCCC4)ccc(c23)C1=O | -18 | ? | ? | -5 | -16 | i | -226 | 0
C=CCNC(=O)c1ccc(C)c(Br)c1 | -1 | -2 | -10 | -20 | nt | i | 3 | -3
COc1ccc(NC(=S)N2CCC(C(O)(c3ccccc3)c3ccccc3)CC2)cc1 | -43 | 9 | 7 | -26 | 6 | i | -20 | -5
COc1cc(CSC)nc(-c2ccccc2)n1 | 2 | 5 | 2 | -14 | 7 | i | -2 | -1

Following part
SMILES | CSC inhib | PABP FP inh | eIF4H inh | UUG fidelity | HIV Env fusion | Rce1 inhib | MT1-MMP act inh | MT1-MMP act inh RFP
CCCC(C(=O)NC(C)(C)C)N(Cc1ccccc1Cl)C(=O)c1snc(C(N)=O)c1N (stereo unspecified) | 13 | 2 | 6 | 16 | 21 | i | 1 | -5
Cc1cc(=O)[nH]c2c1c(C)nn2C1CCCCC1 | -11 | 7 | -14 | -16 | nt | i | 1 | 2
CCc1c(C(=O)NCc2cnn(C)c2)csc1C | -12 | 28 | -3 | 2 | nt | i | 0 | -1
Cc1cccc(C)c1NC(=O)CNC(=O)Cc1c[nH]c2ccccc12 | 2 | nt | nt | 13 | 2 | i | -4 | 2
COc1ccccc1CNC(=O)C1CCN(S(=O)(=O)N2CCCCC2)CC1 | -2 | 0 | 0 | -5 | nt | i | 4 | -1
COc1cccc(/C(O)=C2\C(=O)C(=O)N(c3ccccn3)C2c2cccc(OC)c2OC)c1 (stereo unspecified) | -26 | -2 | -2 | -8 | -5 | nt | -3 | 2
OCCSc1nc(N2CCOCC2)nc(N2CCOCC2)n1 | -20 | -5 | 8 | nt | 1 | i | -3 | 4
COc1ccc(F)cc1C(=O)C1CCCN(Cc2cccn2-c2cccnc2)C1 (stereo unspecified) | 9 | -4 | -2 | nt | 23 | i | -7 | 0
C/C(=N\NC(=O)Cc1csc(N2CCOCC2)n1)c1ccc(Cl)c(Cl)c1 | -6 | 2 | 6 | -8 | 16 | i | -2 | -9
COc1ccc(-c2csc(-c3cccs3)n2)cc1OC | 11 | -2 | 1 | nt | -19 | i | 0 | -1
O=C(NCc1cccc(Cl)c1)C1=CC=CN2CCS(=O)(=O)N=C12 | -15 | nt | nt | -13 | nt | nt | 4 | 3

Screening results (PubChem BioAssay)
